KCNQ2 pot: potentiators of rat KCNQ2 potassium channel; B-score at 10 µM; CHO-K1 KCNQ2, FluxOR thallium flux fluorescence; active compounds read high; hit rate 0.54% among 310,000;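 active = fluorescence ratio B-score at least 3 SD of library B-scores, with initial fluorescence B-score within 3 SD, cut at about 5.3 in these data; same plate scores as AID 2156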;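 also: B-score of peak minus minimum over baseline fluorescence ratio after K+ and Tl+ stimulus; positive B-score means potentiation of KCNQ2 with more thallium influx and brighter signal; only the inactives scoring about 0 or higher are listed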
Target sequence (O88943 whole entry, looked up): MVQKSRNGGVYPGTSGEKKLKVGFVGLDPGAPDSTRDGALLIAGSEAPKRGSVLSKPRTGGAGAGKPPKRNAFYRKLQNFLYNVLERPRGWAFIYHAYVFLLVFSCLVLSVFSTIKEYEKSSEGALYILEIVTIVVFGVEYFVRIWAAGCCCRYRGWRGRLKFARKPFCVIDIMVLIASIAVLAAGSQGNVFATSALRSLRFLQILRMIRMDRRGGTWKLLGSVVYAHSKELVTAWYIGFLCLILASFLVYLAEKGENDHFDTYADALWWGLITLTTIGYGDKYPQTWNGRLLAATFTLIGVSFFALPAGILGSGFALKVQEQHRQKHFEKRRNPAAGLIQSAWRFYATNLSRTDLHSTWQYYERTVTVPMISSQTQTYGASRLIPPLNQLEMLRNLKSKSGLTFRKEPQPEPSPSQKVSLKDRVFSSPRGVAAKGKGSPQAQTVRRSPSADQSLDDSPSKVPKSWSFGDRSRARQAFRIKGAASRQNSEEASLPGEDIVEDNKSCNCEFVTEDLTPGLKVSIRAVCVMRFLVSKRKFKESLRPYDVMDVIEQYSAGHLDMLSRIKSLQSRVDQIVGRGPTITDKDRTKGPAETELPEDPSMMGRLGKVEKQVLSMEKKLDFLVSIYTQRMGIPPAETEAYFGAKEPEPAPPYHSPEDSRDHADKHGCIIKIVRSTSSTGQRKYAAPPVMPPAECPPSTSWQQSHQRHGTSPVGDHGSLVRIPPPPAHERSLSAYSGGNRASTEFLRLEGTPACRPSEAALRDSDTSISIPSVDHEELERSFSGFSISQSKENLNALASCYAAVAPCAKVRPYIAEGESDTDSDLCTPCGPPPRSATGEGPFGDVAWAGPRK
KCNQ2 pot baseline: further read-out of KCNQ2 pot, marked with its call; B-score; compound at 10 µM; measured here: initial fluorescence intensity artifact check;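 brightness before thallium and not channel activity; 0 = typical well and far values either way flag optical interference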
An asterisk follows results filed as active. Only part of the results is shown. The share of hits here may be higher or lower than overall.

KCNQ2 pot | KCNQ2 pot baseline | compound
1.6 | -0.01 | O=C(Oc1ccc(-c2nnco2)cc1)c1ccc(F)c(S(=O)(=O)N2CCOCC2)c1
0.55 | -0.06 | COc1ccc(OC)c(C(=O)CCCC(=O)c2cc(OC)ccc2OC)c1
0.01 | 0.62 | CCc1nn(CC(=O)N2CCN(CC)CC2)c(=O)c2cccn12
0.58 | 0.18 | COc1cccc(N2CCN(CC(=O)NCc3cccs3)CC2)c1
0.23 | -0.16 | Cc1ccc(S(=O)(=O)N2CCN(c3ccnc4cc(Cl)ccc34)CC2)cc1
0.65 | -2.7 | CC(C)Cc1ccc(C(C)C(=O)Nc2cccnc2)cc1 (stereo unspecified)
0.81 | 0.83 | Nc1ccc(-c2nc3ccc([N+](=O)[O-])cc3[nH]2)cc1
0.32 | 0.65 | O=C(CN1C(=O)c2ccccc2C1=O)N1CCCCC1
0.81 | 0.02 | Cc1c(/C=N/Nc2ccc(F)cc2)c(O)n(C)c(=O)c1C#N
0.01 | 2.2 | CC(C)(C)c1ccc2c(c1)OC(C(=O)N/N=C\c1ccncc1)CO2 (stereo unspecified)
0.04 | 2.1 | O=C1/C(=N\O)Cc2ccccc21
0.47 | 1.2 | NC(=O)CC(NC(=O)Cc1ccc(Br)cc1)c1ccc(NCCc2cccc(F)c2)c([N+](=O)[O-])c1 (stereo unspecified)
5.5* | -1.6* | N#Cc1c(-c2ccco2)nc(SCC(=O)Nc2cccc(Cl)c2)[nH]c1=O
1 | 0.05 | CCOC(=O)C1=C(C)N(CCCC(=O)O)C(=O)NC1c1ccc(Br)cc1 (stereo unspecified)
0.83 | 0.69 | COc1ccc(-c2cc(C(=O)OCC(=O)c3ccc(C)c([N+](=O)[O-])c3)c3ccccc3n2)cc1
0.81 | -0.66 | N#Cc1c(-c2ccccc2)[nH]c(=O)[nH]c1=O
0.37 | -0.12 | N#Cc1cc(-c2ccccc2)nn1-c1ccccc1
1.1 | 0.92 | O=S(=O)(/N=C(/c1ccc(Cl)cc1)N1CCOCC1)c1ccc(Cl)cc1
3 | 1 | Cc1cc(OC(C)C(N)=O)nc(-c2ccccc2)n1 (stereo unspecified)
1.6 | 0.65 | CCOC(=O)N=Nc1c2ccccc2c2nc3no[nH]c3nc12
1.2 | 0.71 | COc1cccc2c1-c1c(O)cccc1C2=O
1.2 | -0.48 | CCOC(=O)C1=C(N)OC(C)=C(C#N)C1c1ccco1 (stereo unspecified)
0.01 | -0.57 | CC(=O)Nc1ccc2nc(NC(=O)C(Cl)(Cl)Cl)sc2c1
0.41 | -1.5 | Cc1ccc(Cl)c(NC(=O)COC(=O)C2CCC2)c1Cl
0.01 | 0.7 | CCC(CC)C(=O)Nc1cccc(C(=O)NCCc2ccc(S(N)(=O)=O)cc2)c1

Reprinted from the part before: 3 compounds, followed by the next part.
KCNQ2 pot | KCNQ2 pot baseline | compound
0.01 | -0.57 | CC(=O)Nc1ccc2nc(NC(=O)C(Cl)(Cl)Cl)sc2c1
0.41 | -1.5 | Cc1ccc(Cl)c(NC(=O)COC(=O)C2CCC2)c1Cl
0.01 | 0.7 | CCC(CC)C(=O)Nc1cccc(C(=O)NCCc2ccc(S(N)(=O)=O)cc2)c1
1.2 | -1.6 | CCOC(=O)CN1C(=O)C(O)=C(C(C)=O)C1c1ccc(F)cc1 (stereo unspecified)
0.8 | -0.8 | CCn1nc(NC(=O)C(C)C)c2cc3ccc(C)cc3nc21
0.41 | 1.2 | COc1ccccc1NC(=O)Nc1nnc(Cc2ccc(F)cc2)s1
0.55 | -0.74 | CS(=O)(=O)C1=NN2C(=N)/C(=C\c3ccc(OCCOc4ccccc4)cc3)C(=O)N=C2S1
1.4 | -1.3 | O=C(NCCC1CCCCN1S(=O)(=O)c1ccc(F)cc1)C(=O)NC1CC1 (stereo unspecified)
1.1 | 0.7 | CC1CCCN(CC(O)COCC2COc3ccccc3O2)C1 (stereo unspecified)
0.17 | -1.5 | CCN(CC)CCN(C(=O)CCS(=O)(=O)c1ccccc1)c1nc2cc(C)cc(C)c2s1
0.44 | -1.1 | COCCCNC(=O)CCCN1C(=O)c2cccnc2Sc2ccccc21
1.3 | 1.5 | COc1ccc(CC(=O)NC(CC(=O)O)c2cccc([N+](=O)[O-])c2)cc1 (stereo unspecified)
4 | 0.39 | CC1=NN(C(=O)c2csc(C(C)C)c2)C(O)(C(F)(F)F)C1 (stereo unspecified)
2.2 | 0.11 | O=C(NCc1cccnc1)c1csc2c1CCCC2
0.64 | -1.4 | CN1CCC(OC(=O)COc2ccc(F)cc2)CC1
0.59 | -0.04 | CC(=O)c1c(C)nc(-c2ccccc2)nc1NC(=O)Cc1ccccc1
0.11 | -0.03 | Cc1onc(-c2ccccc2)c1C(=O)NCc1ccc(Cl)cc1
0.45 | -2.6 | CCc1nc(N2CCOCC2)c(C#N)c2c1CCCC2
1.5 | 0.07 | Cc1ccc(-c2csc(NC(=O)C3CCN(S(=O)(=O)c4cccs4)CC3)n2)cc1
0.63 | 0.57 | O=C(NCc1ccco1)C1CC(c2ccc(C(F)(F)F)cc2)=NO1 (stereo unspecified)
0.31 | -0.22 | O=C(C/C=N/OCc1ccc(Cl)cc1Cl)c1ccccc1
4.6 | -1 | Cc1cc(SCC(=O)NC2(C#N)CCCCC2)nc2c(C)cccc12
0.01 | 2.4 | COC(=O)C1=C(C(=O)OC)C(c2ccccc2O)c2sc(=O)[nH]c2S1 (stereo unspecified)
0.6 | 0.36 | O=C(O)C1CCCCC1C(=O)NCCc1ccccc1 (stereo unspecified)
0.01 | -1.4 | Cc1cc(NC(=O)C(=O)NCc2cccc(Cl)c2)no1
0.15 | -0.52 | Nc1nc(Sc2ccc(C(F)(F)F)cn2)n[nH]1
2.2 | -0.62 | COc1ccccc1NS(=O)(=O)c1ccc(C(=O)N2CCN(c3ccccc3O)CC2)cc1
1 | 0.53 | CC(/C=N/NC(=O)Cn1cnc2ccccc21)=C\c1ccccc1
0.45 | -0.01 | COc1cccc(C(=O)Nc2c[nH]c(=O)[nH]c2=O)c1
1.8 | 1.3 | CCOc1ccc(/C=N/Nc2nc(=O)[nH]nc2C)cc1OC
1.5 | 0.76 | N#Cc1cccc(NC(=O)COc2ccc(-n3ccnc3)cc2)c1
0.52 | -0.79 | COc1ccc(/C=N/NC(=O)c2ccc3nc[nH]c3c2)cc1
0.07 | 0.37 | O=C(CCc1nnc2ccc(N3CCCC3)nn12)Nc1ccc(F)cc1F
2.9 | -2.3 | CSc1ccccc1C(=O)C1CCCN(C(=O)c2ccc(N3CCOCC3)cc2)C1 (stereo unspecified)
0.31 | -1.3 | CCc1c(C)nc(SCC(=O)c2cccs2)c(C#N)c1C
0.5 | 0.74 | COc1ccc(C2Sc3nncn3N2Cc2ccc(C#N)cc2)cc1 (stereo unspecified)
0.98 | 0.32 | O=C(CSc1nc2ccccc2n1CCc1ccccc1)NC1CCS(=O)(=O)C1 (stereo unspecified)
0.44 | -0.42 | O=C(N/N=C/c1ccc2c(c1)OCO2)/C(=C/c1ccc2c(c1)OCO2)NC(=O)c1ccccc1
0.18 | 0.04 | Cc1ccc(CNC(=O)c2ccc(N3CCC4(CC3)CC(c3ccccc3)=NO4)c(NC(=O)c3c(Cl)cccc3Cl)c2)cc1
0.52 | 0.16 | COc1ccc(NC(=O)CN2C(=O)/C(=C3\SC(=S)N(C4CCS(=O)(=O)C4)C3=O)c3ccccc32)cc1 (stereo unspecified)
0.02 | 1.4 | Cc1ccc(NC(=O)C2CCCN2C(=O)OCc2ccccc2)cc1C (stereo unspecified)
0.27 | 0.01 | O=C1c2ccccc2C(=O)c2c1cccc2N1CCOCC1
0.02 | -1.1 | CCOC(=O)c1c(C)n(C)c2ccc(OCC(O)Cn3nc(C)c(Br)c3C)cc12 (stereo unspecified)
0.6 | -3.2 | COc1ccccc1N1CC(C)(C)C(=O)N(C(=O)c2ccc(Cl)cc2)C1=S
0.05 | 0.11 | Cc1ccc(C)c(N(CC(=O)NC2CCCC2)S(=O)(=O)c2ccccc2)c1
1.4 | 0.01 | CCC(=O)N1N=C(c2cccs2)CC1c1ccc(C)cc1 (stereo unspecified)
0.1 | -1.1 | O=C(NN1C(=O)C2C3C=CC([C@H]4CC34)[C@@H]2C1=O)c1ccc(Br)cc1 (stereo partly specified)
0.83 | -0.51 | CCCn1c(N2CCN(C(=O)Nc3ccccc3)CC2)nc2ccccc21
0.42 | -0.27 | CC1=CC=CC2=NC(=O)CC(C)(C(=O)N(CC(=O)NC(C)C)C3CCCC3)N12 (stereo unspecified)
0.51 | 2.6 | CC1Cc2ccccc2N1C(=O)COC(=O)CSc1ccc(F)cc1 (stereo unspecified)
0.07 | 0.02 | COc1ccccc1CNC(=O)C1CCN(c2nc3ccccc3o2)CC1
0.38 | -1 | CCN1CCN(C(=O)c2ccc(C(F)(F)F)cc2)CC1
0.67 | 1 | CSC1=NSC2=NC(=O)/C(=C\c3ccc(OC(=O)c4ccco4)cc3)C(=N)N12

Whole records, quoted from the list:
Shown for `CCCn1c(N2CCN(C(=O)Nc3ccccc3)CC2)nc2ccccc21` = KCNQ2 pot = 0.83; KCNQ2 pot baseline = -0.51
Shown for `O=C(Oc1ccc(-c2nnco2)cc1)c1ccc(F)c(S(=O)(=O)N2CCOCC2)c1` = KCNQ2 pot = 1.6; KCNQ2 pot baseline = -0.01

Following part
KCNQ2 pot | KCNQ2 pot baseline | compound
0.05 | -0.37 | CCC(C)(C)n1nnnc1C(CC(C)C)N1CCC(C(N)=O)CC1 (stereo unspecified)
0.37 | -0.84 | Cc1cc(C(=O)OCC(=O)NC(=O)NC(C)(C)C)c(C)o1
0.98 | -0.46 | Cc1c(Cc2ccccc2)c(=O)oc2cc(OCC(=O)NCC(O)c3ccccc3)ccc12 (stereo unspecified)
1.4 | 0.51 | COc1cc(/C=N/NC(=O)CC2(C)OCCCO2)ccc1OCc1ccc(Cl)cc1Cl
0.27 | -0.16 | Cc1cccc(OCC(=O)Nc2nnc(-c3ccco3)s2)c1
1.3 | -0.55 | NC(=O)C[n+]1cccc(C(=O)Nc2ccccc2)c1
0.97 | -1.9 | COCC(=O)OCn1nnc2ccccc2c1=O
0.73 | 0.68 | c1ccc(-c2nc3ccccc3c3nncn23)cc1
0.29 | 0.13 | COc1cc(/C=C2\C(=O)NN(c3ccccc3)C2=O)ccc1OCC(N)=O
0.26 | 1.9 | Cc1cc2cc(OCc3ccccc3)ccc2n1C
4.1 | -1.1 | CCN1CCN(c2nc3sc4c(c3c3ncnn23)CC(C)CC4)CC1 (stereo unspecified)
1 | -0.06 | O=C(Cc1ccc([N+](=O)[O-])cc1)Nc1ccc(Br)cn1
0.36 | -0.01 | CC(=O)Nc1ccc(C(=O)N/N=C/c2ccc(F)cc2)cc1
1.5 | -0.41 | O=C(/C=C/c1ccc(F)cc1)N1CC[C@@]2(O)CCCC[C@H]2C1
0.03 | -0.05 | CC(Sc1ccccc1)C(=O)NN=C1CCN(C)CC1 (stereo unspecified)
2 | -2 | O=C(NCC1CCCO1)C(=O)N/N=C/c1ccc(O)c(Cl)c1 (stereo unspecified)
0.54 | -0.01 | CCOCCCNc1c2c(nc3cc(-c4ccc(F)cc4)nn13)CCC2
0.85 | 0.72 | CCc1ccccc1N1CC23C=CC(O2)C(C(=O)O)C3C1=O (stereo unspecified)
0.98 | -0.02 | COc1ccc(NC(=O)C2C(=O)N(CCO)C3(C)CC2c2ccccc2O3)cc1 (stereo unspecified)
0.26 | 1.9 | CCOc1cc(/C=N/Nc2nc3ccccc3[nH]2)cc(Br)c1OCC(=O)N(C)C
1.3 | -0.38 | CCc1ccc(CN2CCC(n3nccc3NC(=O)C3CCCC3)CC2)cc1
0.42 | -0.18 | Cc1ccc(NS(=O)(=O)c2ccc(NC(=O)[C@@H]3CCCC[C@@H]3C(=O)O)cc2)c(C)c1
1.5 | 0.18 | CCOc1ccc(C(=O)COC(=O)c2ccc(-n3cnnn3)cc2)cc1
0.53 | 0.11 | CCC(C)c1ccccc1NC(=O)COC(=O)c1ccc2c(c1)S(=O)(=O)c1ccccc1C2=O (stereo unspecified)
0.59 | -0.07 | O=C(O)CCN1C(=O)c2ccncc2C1=O
0.59 | -0.31 | O=C(Nc1cccc([N+](=O)[O-])c1)c1ccncc1
0.66 | 2.4 | Cc1noc(C)c1C(=O)NCc1ccccc1Br
0.99 | -2.7 | CCOC(=O)C1CCCN(C(=O)Cn2nc(C)n3c(cc4c(OC)cccc43)c2=O)C1 (stereo unspecified)
0.82 | 1.3 | Cc1nn(C)c(C)c1S(=O)(=O)N(CC(=O)NCc1ccco1)c1ccc(C(C)C)cc1
1.2 | -2 | O=C1c2ccccc2C(=O)c2c1ccc(C(=O)N1CCCCC1)c2NCCO
0.04 | 0.17 | O=C(O)C1CSC(c2ccncc2)N1 (stereo unspecified)
2.1 | -1.6 | CCN(CC)S(=O)(=O)N1CCC(C(=O)NCc2ccco2)CC1
1.8 | -0.37 | COc1ccc(-c2cc(C(F)(F)F)nc(N3CCN(C)CC3)n2)cc1OC
1.7 | -2.7 | CCN1CCN(CCCNC(=O)CCC(=O)N2CCOc3ccccc32)CC1
0.2 | -2 | Cc1noc(C)c1S(=O)(=O)Nc1ccc(C(=O)N2CCN(c3ccc(F)cc3)CC2)cc1
2.8 | -0.47 | CCCCC(=O)Nc1nnc(S(=O)(=O)N(CC)c2ccccc2)s1
0.37 | -2.5 | Cc1ccc(Nc2nnc(SCc3cc(=O)n4ccsc4n3)s2)c(C)c1

Part of the list above in order of molecular weight, descending:
KCNQ2 pot | KCNQ2 pot baseline | compound
0.2 | -2 | Cc1noc(C)c1S(=O)(=O)Nc1ccc(C(=O)N2CCN(c3ccc(F)cc3)CC2)cc1
0.37 | -2.5 | Cc1ccc(Nc2nnc(SCc3cc(=O)n4ccsc4n3)s2)c(C)c1
1.8 | -0.37 | COc1ccc(-c2cc(C(F)(F)F)nc(N3CCN(C)CC3)n2)cc1OC
2.8 | -0.47 | CCCCC(=O)Nc1nnc(S(=O)(=O)N(CC)c2ccccc2)s1
0.59 | -0.31 | O=C(Nc1cccc([N+](=O)[O-])c1)c1ccncc1
